A1 inh: inhibitors of the anti-apoptotic protein A1, read as caspase activation. MEF A1-2A-BIM cells, Caspase-Glo 3/7 luminescence, 3 h; percent of clofoctol response, vehicle zero. caspase activation, % (concentration not given with the values). hit rate 0.066% among 330,000. AID 2462;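 active means over half of replicate activation scores above 10%, or exactly half above 10 with the replicate mean above 10; inconclusive means replicate mean below 10 yet half the replicates above 10; inactive means over half of replicates below 10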;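 further: wells of about 30 µL received 50 nL stock; many hits fall short of the cut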
UCH37 inh: blocks the human deubiquitinase UCH37 | AID 588478 | purified proteasome/UCH37, Ub-AMC cleavage fluorescence | Q9Y5K5 | inhibition, % (test concentration not listed) | hit rate 0.33% among 330,000;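 active means mean of two replicates above 20%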;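 further: 0% = compound-free wells with enzyme and 100% = wells lacking proteasome; stock transfer was 100 nL into about 20 µL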
Target sequence (Q9Y5K5 whole entry, looked up): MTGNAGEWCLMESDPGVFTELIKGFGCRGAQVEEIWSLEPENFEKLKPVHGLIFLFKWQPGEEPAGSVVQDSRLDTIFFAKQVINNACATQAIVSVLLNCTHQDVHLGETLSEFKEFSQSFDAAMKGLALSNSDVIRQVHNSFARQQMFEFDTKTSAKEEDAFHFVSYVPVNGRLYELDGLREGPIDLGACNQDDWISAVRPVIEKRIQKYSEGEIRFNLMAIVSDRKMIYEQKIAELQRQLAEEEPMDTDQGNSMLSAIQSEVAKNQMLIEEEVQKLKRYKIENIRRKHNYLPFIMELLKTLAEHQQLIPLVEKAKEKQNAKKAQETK
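system = Proteasome-associated human UCH37 deubiquitinase | amount = 0.15 nM proteasome as dispensed | medium = pH 7.4 Tris-HCl (50 mM) with ovalbumin, ATP-MgCl2, DTT | incubation = 30 min preincubation with enzyme, 25 min cleavage at room temperature | detection = AMC fluorescence 355/460 nm | read-out basis = percent inhibition | controls = no-proteasome and no-compound wells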
Beta2AR agonist: agonists of human beta-2 adrenergic receptor inducing internalization | Am2.2-beta2AR cells, FAP receptor internalization, flow cytometry; reference of the scale not given here | response, % (concentration not given with the values) | hit rate 0.43% among 340,000 | AID 504454;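 active means response above a set limit, near 3 SD of response in nonfluorescent compounds, cut at about 42% in these data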;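 further: stock transfer was 100 nL into about 11 µL; a reference agonist was the positive control; negative values mostly stem from fluorescent compounds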
Target sequence (P07550 whole entry, looked up): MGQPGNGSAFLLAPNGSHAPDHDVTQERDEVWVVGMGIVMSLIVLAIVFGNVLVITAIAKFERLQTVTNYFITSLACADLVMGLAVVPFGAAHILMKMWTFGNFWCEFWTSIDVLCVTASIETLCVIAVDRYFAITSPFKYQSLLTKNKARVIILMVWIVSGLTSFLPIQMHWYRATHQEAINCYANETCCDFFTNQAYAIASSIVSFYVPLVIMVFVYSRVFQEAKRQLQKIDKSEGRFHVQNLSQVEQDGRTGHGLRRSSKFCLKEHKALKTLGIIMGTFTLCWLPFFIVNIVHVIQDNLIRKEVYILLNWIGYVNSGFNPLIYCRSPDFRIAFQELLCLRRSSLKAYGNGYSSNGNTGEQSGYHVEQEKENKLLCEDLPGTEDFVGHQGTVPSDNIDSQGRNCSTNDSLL
Beta cell apopt: blocks beta cell apoptosis | hit rate 0.8% among 300,000 | INS-1E cytokine-induced death, ATP luminescence, 48 h; percent of positive-control rescue, neutral wells zero | protection from apoptosis, % (test concentration not listed);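 active means all replicates at 75% or more, or half of them and the mean; inconclusive means half reach 75% but not the mean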;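 further: 0% = cytokine-treated negative control wells and 100% = positive control rescue; higher means more ATP so stronger rescue from cytokine killing; wells of about 40 µL received 100 nL stock; the first replicate is given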
T cruzi inh: blocks replication of Trypanosoma cruzi. hit rate 1.4% among 300,000. AID 1885. inhibition, % (no concentration beside the values). T. cruzi beta-gal in NIH3T3, luminescence, 90 h;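 active means mean inhibition across valid replicates above about 55%, limit read from the data; inconclusive means mean below that limit but half or more replicates reach it; inactive means mean below it, under half of replicates reach it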;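 further: signal also drops with host cell toxicity which is not excluded here; 0% = plate median of DMSO wells and 100% = zero luminescence signal; higher percent means less beta-gal luminescence so fewer parasites; stock transfer was 50 nL into about 50 µL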
Calb FLC: C. albicans growth modulation with fluconazole; C. albicans CaCi-2 (fluconazole-resistant clinical isolate) + fluconazole, Alamar Blue growth, 48 h; growth inhibition, % (concentration not given with the values); hit rate 0.57% among 300,000; AID 1979;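 active means most replicates above 75%; inconclusive means exactly half above 75%; inactive means most below 75%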;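 further: all wells also contain fluconazole at 8 µg/ml as a sub-toxic cotreatment; 0% = median of DMSO wells and 100% = median of geldanamycin control wells; wells of about 8 µL received 7.5 nL stock; the first replicate is given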
LANA-H2A inh: blocks KSHV LANA binding to histone H2A/H2B; Q9QR71; cell-free LANA-H2A/H2B peptide, fluorescence polarization; inhibition, % (concentration not given with the values); hit rate 0.6% among 320,000; in the data active means inhibition mostly above about 10%, no sharp cut-off; inactive means mostly below about 6.7%;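 further: stock transfer was 7.5 nL into about 10 µL; 0% = median of vehicle wells and 100% = median of positive control wells; one replicate is shown; the record names a cut of 25% in any replicate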
RanGTP-Impb inh: inhibitors of RanGTP-importin-beta interaction, primary screen, biochemical, FRET, CFP-Ran, YFP-importin-beta, homogeneous. hit rate 1.1% among 300,000. inhibition, % (no concentration beside the values). cell-free CFP-Ran/YFP-importin-beta FRET ratio;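 active means most replicates above 15%; inconclusive means exactly half above 15%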;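 further: 0% = DMSO wells and 100% = Ran loaded with GDP instead of GTP; wells of about 40 µL received 100 nL stock; the first replicate is given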
An asterisk follows results filed as active; ? = inconclusive; · = no result given.

no.	structure	A1 inh	UCH37 inh	Beta2AR agonist	Beta cell apopt
1	COc1cc(OC)c(OC)cc1CN1CCN(c2ccc(F)cc2)CC1	0.0	2.4	-4	-2
2	CC(C)c1ccc(Nc2nnns2)cc1	-1.9	3.0	1	-10
3	Cc1ccsc1S(=O)(=O)N1CCCC(CCC(=O)NCc2ccccc2F)C1 (configuration not stated)	-0.3	2.0	-5	2
4	O=C1CCc2cc(NS(=O)(=O)c3ccc(Cl)cc3)cc3c2N1CC3	2.2	4.3	2	·
5	Cc1ccccc1Cn1ccc(-c2ccc3c(c2)OCO3)n1	0.4	-0.5	1	0
6	Cc1ccccc1N(CC(=O)N/N=C/c1cc(Br)c(C)o1)S(C)(=O)=O	0.3	·	-3	0
7	O=C(Nc1ccc2c(c1)OCO2)c1n[nH]c(=O)c2ccccc12	-6.3	7.0	-1	4
8	Cc1ccc(Nc2ccncc2S(N)(=O)=O)cc1	0.0	6.5	3	·
9	O=C(c1ccco1)N1CCN(S(=O)(=O)c2c(Cl)cccc2Cl)CC1	0.5	1.5	-2	·
10	CC1CCCC(NC(=O)COC(=O)[C@@H](NC(=O)c2ccccc2Cl)C(C)C)C1C (some centres not stated)	1.4	0.1	-6	0
11	COc1ccc(CN2CC(=O)N(c3cc(Cl)ccc3C)C2=S)cc1OC	0.5	-0.2	19	3
12	COc1cc(/C=C/C(=O)OCC(=O)Nc2ccccc2Sc2ccc(Cl)cc2)ccc1O	-0.3	-19	1	-5

no.	T cruzi inh	Calb FLC	LANA-H2A inh	RanGTP-Impb inh
1	14	-3	-6.8	-0.6
2	-13	-5	1.2	9.3
3	3	-12	-5.6	2.8
4	-5	14	-7.7	4.7
5	-4	-28	0.7	-4.9
6	1	20	-0.8	7.0
7	0	2	2.6	2.0
8	-1	2	2.1	-0.2
9	-2	4	-2.8	0.5
10	·	·	0.4	·
11	3	-4	1.2	2.0
12	-12	-3	-1.0	2.8

Next results follow.
no.	structure	A1 inh	UCH37 inh	Beta2AR agonist	Beta cell apopt
13	NC(=O)CC(NC(=O)c1ccccc1)c1ccc(NC2CCCC2)c([N+](=O)[O-])c1 (configuration not stated)	1.0	0.9	-25	-1
14	O=C(CN1CCN(C(=O)CN2C(=O)NC3(CCCC3)C2=O)CC1)Nc1cccc(F)c1	1.9	0.6	-1	-2
15	Cc1ccc(C2CCN(C(=O)Nc3ccccc3)C2)cc1 (configuration not stated)	-3.3	2.8	3	-6
16	NNc1nnc2c3cc(F)ccc3n(CCc3ccccc3)c2n1	0.9	5.3	4	14
17	COc1ccc(C)cc1NC(=O)C(NCC(O)c1ccccc1)c1ccccc1 (configuration not stated)	-0.5	0.7	1	-5
18	Cc1ccc2[nH]c(=O)c(CC=C(Cl)Cl)c(C)c2c1	0.2	-5.8	0	2
19	Cc1cc(NC(=O)c2ccccc2)cc(NC(=O)c2ccccc2)c1C	0.0	-2.0	-1	-5
20	O=C(Nc1nccs1)c1ccc(COc2ccc(Cl)cc2)o1	0.5	-7.3	-5	1
21	COCCNC(=O)c1cccc(OC2CCN(Cc3ccc(F)c(OC)c3)CC2)c1	0.6	1.0	-5	3
22	CCC(C)(C)NC(=O)Cc1ccc(OC)c(OC)c1	1.0	2.1	-2	·
23	NC(=O)C1CCN(C(=O)CSc2ncccn2)CC1	-0.4	0.2	4	-4
24	C#CCOCCOCCOCCNc1nc(N2CCN(C(=O)[C@H]([C@@H](C)CC)n3cc([C@@H](N)CO)nn3)CC2)nc(N2CCN(C(=O)[C@H]([C@@H](C)CC)n3cc([C@@H](N)CC(C)C)nn3)CC2)n1	0.4	0.6	17	-7

no.	T cruzi inh	Calb FLC	LANA-H2A inh	RanGTP-Impb inh
13	1	-4	-6.1	?
14	·	·	-1.5	·
15	12	-5	-7.1	-0.2
16	-2	-1	0.0	5.0
17	17	-4	-4.0	-0.2
18	14	-7	1.3	1.0
19	0	2	7.9	3.3
20	-7	-12	-2.4	?
21	2	1	-3.1	-5.7
22	2	2	0.7	5.1
23	-15	-14	-4.6	-0.6
24	-10	7	1.5	-5.6

Part of the list above in order of formula weight, largest number first:
no.	structure	A1 inh	UCH37 inh	Beta2AR agonist	Beta cell apopt
14	O=C(CN1CCN(C(=O)CN2C(=O)NC3(CCCC3)C2=O)CC1)Nc1cccc(F)c1	1.9	0.6	-1	-2
19	Cc1cc(NC(=O)c2ccccc2)cc(NC(=O)c2ccccc2)c1C	0.0	-2.0	-1	-5
23	NC(=O)C1CCN(C(=O)CSc2ncccn2)CC1	-0.4	0.2	4	-4

no.	T cruzi inh	Calb FLC	LANA-H2A inh	RanGTP-Impb inh
14	·	·	-1.5	·
19	0	2	7.9	3.3
23	-15	-14	-4.6	-0.6

Next section:
no.	structure	A1 inh	UCH37 inh	Beta2AR agonist	Beta cell apopt
25	CCc1nnc(NC(=O)CC(CN(C)S(=O)(=O)c2ccccc2)c2ccccc2)s1 (configuration not stated)	-0.4	4.7	-10	5
26	C=CCNC(=O)CC12CC3CC(C1)CC(CC(=O)NCC=C)(C3)C2	0.2	4.1	2	-2
27	COCCCNc1nc2ccccc2nc1NS(=O)(=O)c1ccccc1	-0.1	-15	4	-4
28	O=C1c2cccnc2C(=O)N1Cc1ccc(S(=O)(=O)NCc2ccco2)s1	0.4	2.8	7	-1
29	COCCOc1cc(NC(=O)c2ccccc2)c(Cl)cc1Cl	0.7	5.6	2	8
30	Cc1onc(-c2ccccc2Cl)c1C(=O)OCC(=O)N1CCCCC1	-0.4	2.7	-5	-1
31	COc1ccc(NC(=O)COC(=O)[C@@H]2CCCN2C(=O)c2cccs2)cc1	0.3	1.5	-5	-4
32	O=C(NCCO)c1cccc(Cl)c1	0.8	3.8	4	·
33	Cc1nn(-c2ccccc2)c(Cl)c1/C=N/NC(=O)CCNc1n[nH]c(=O)[nH]c1=O	-0.1	·	·	-13
34	CCOC(=O)N/N=C\c1cccc(OC)c1	0.0	·	0	-2
35	CCOc1ccc(NC(=O)CCc2nnc3ccc(N4CCN(C)CC4)nn23)cc1	0.3	0.2	0	0
36	CCS(=O)(=O)C1=NSC2=NC(=O)/C(=C\c3ccc(OS(=O)(=O)c4ccccc4)cc3)C(=N)N21	-3.3	·	3	-7

no.	T cruzi inh	Calb FLC	LANA-H2A inh	RanGTP-Impb inh
25	3	3	-0.4	0.0
26	6	-12	7.5	3.5
27	-1	-5	-4.4	-0.7
28	-10	-17	4.7	3.6
29	14	1	-0.8	-1.2
30	·	·	-1.0	·
31	-3	4	6.5	?
32	-10	-6	-2.9	-2.5
33	-1	-5	-0.5	-2.7
34	-12	-6	0.4	2.9
35	-8	2	0.8	6.1
36	9	-10	-5.2	12

Carrying on:
no.	structure	A1 inh	UCH37 inh	Beta2AR agonist	Beta cell apopt
37	COc1ccc(C2SC[C@@H](C(=O)O)N2C(C)=O)cc1 (some centres not stated)	-0.4	-1.1	0	-6
38	COC(=O)c1ccc(OC(=O)CCN2C(=O)C3C4c5ccccc5C(c5ccccc54)C3C2=O)cc1 (configuration not stated)	-0.4	7.0	1	-5
39	COC(=O)CCc1c(C)c(C(=O)c2cc(OC)c(OC)c(OC)c2)c2ccccn12	0.6	6.6	-7	-10
40	Nn1c(SCC(=O)NCC2CCCO2)nnc1-c1ccc(OC(F)F)cc1 (configuration not stated)	-0.4	3.7	0	1
41	O=C(Nc1ccc([N+](=O)[O-])cn1)C1CC1	0.7	5.8	-4	-3
42	Cc1cccc(C)c1N(CC(=O)N(C)Cc1ccccc1)S(C)(=O)=O	0.6	1.0	-10	·
43	COc1ccccc1Nc1nnc(SCc2cc(=O)n3ccsc3n2)s1	-0.5	2.3	7	16
44	CC(=O)Nc1ccc2oc(-c3ccccc3Br)nc2c1	-6.0	-10	-3	-4
45	Cc1ccccc1N1CCN(CC(=O)Nc2nc(C)c(C(=O)N(C)C)s2)CC1	-0.7	2.6	3	-2
46	Cc1cc(Nc2ccccc2C(=O)O)n(-c2ccc([N+](=O)[O-])cc2)n1	-1.0	9.6	6	-3
47	CCOC(=O)c1ccc(NC(=O)CSc2nc(NC(=O)c3ccccc3)c3c(C)c(C)oc3n2)cc1	-0.1	-25	6	7
48	C/C(=N\OC(=O)Nc1ccccc1)c1cnn(-c2cc(C(F)(F)F)cc(C)n2)c1C	0.6	·	9	-11

no.	T cruzi inh	Calb FLC	LANA-H2A inh	RanGTP-Impb inh
37	13	1	-4.9	-3.0
38	-7	-8	2.0	-2.4
39	6	-2	-2.7	-2.7
40	-6	0	-21	2.7
41	6	-3	2.9	1.1
42	-13	-7	1.8	8.7
43	4	-10	3.2	-1.5
44	-10	5	0.2	-3.4
45	-5	21	-13	0.8
46	·	-12	-3.3	-4.7
47	21	32	-1.0	2.6
48	-17	2	-1.3	2.4

Some of the entries so far, screen by screen.
#39 COC(=O)CCc1c(C)c(C(=O)c2cc(OC)c(OC)c(OC)c2)c2ccccn12
#40 Nn1c(SCC(=O)NCC2CCCO2)nnc1-c1ccc(OC(F)F)cc1 (configuration not stated)
#41 O=C(Nc1ccc([N+](=O)[O-])cn1)C1CC1
#42 Cc1cccc(C)c1N(CC(=O)N(C)Cc1ccccc1)S(C)(=O)=O
#43 COc1ccccc1Nc1nnc(SCc2cc(=O)n3ccsc3n2)s1

assay / entry | 39 | 40 | 41 | 42 | 43
A1 inh | 0.6 | -0.4 | 0.7 | 0.6 | -0.5
UCH37 inh | 6.6 | 3.7 | 5.8 | 1.0 | 2.3
Beta2AR agonist | -7 | 0 | -4 | -10 | 7
Beta cell apopt | -10 | 1 | -3 | · | 16
T cruzi inh | 6 | -6 | 6 | -13 | 4
Calb FLC | -2 | 0 | -3 | -7 | -10
LANA-H2A inh | -2.7 | -21 | 2.9 | 1.8 | 3.2
RanGTP-Impb inh | -2.7 | 2.7 | 1.1 | 8.7 | -1.5

New compounds follow.
no.	structure	A1 inh	UCH37 inh	Beta2AR agonist	Beta cell apopt
49	CCOc1cc(/C=N/NC(=O)c2ccc(=O)n(C)c2)ccc1O	0.8	·	-2	0
50	C#Cc1ccc([C@H]2C=C(C(=O)NC3CC3)O[C@@H](OCC)[C@@H]2CCCO)cc1	0.2	1.3	-2	3
51	O=S(=O)(N/N=C\c1ccc(-c2ccccc2Cl)o1)c1ccccc1	1.2	·	-1	-4
52	O=C(COC(=O)CCc1nc2ccccc2s1)Nc1ccc(S(=O)(=O)N2CCOCC2)cc1	0.2	1.6	7	5
53	CCOC(=O)c1c(C2CC2)csc1NC(=O)COC(=O)c1cc(OC)c(OC)cc1[N+](=O)[O-]	-0.7	0.0	3	-2
54	CCCN(CCC)C(=O)c1ccc2c(c1)S(=O)(=O)c1ccccc1C2=O	0.1	1.6	-6	1
55	COC(=O)c1cc(Br)c(=O)n(CCN(C(C)C)C(C)C)c1	1.8	3.1	-2	-2
56	Cc1cc(C)n(S(=O)(=O)c2ccc(Cl)cc2)n1	1.3	-0.7	0	1

no.	T cruzi inh	Calb FLC	LANA-H2A inh	RanGTP-Impb inh
49	-6	14	0.8	1.0
50	-8	0	1.8	2.4
51	-1	30	-0.8	5.3
52	-9	-2	-4.3	1.1
53	34	-6	0.4	·
54	2	5	-9.8	2.2
55	-3	0	1.0	0.8
56	-4	-8	-2.9	0.7
